# Lassa entry inh: inhibitors of Lassa virus binding or cell entry | Lassa virus pseudotype entry inhibition, cell reporter; control for the full effect not named in the record | Potency, µM (titrated, usually from 37.9 µM), inactives show top-dose activity change, negative = inhibition, most hits filed as inhibitors | 300,000 tested, 1.2% active; active means well fitted inhibition curve with a large enough effect; inconclusive means small, poorly fitted or top-dose-only effect, or effect the other way; inactive means flat fitted curve, though single readings scatter; tested in HEK293 cells; also: % is scaled to controls: 0 for no effect and ±100 for the full control effect; nearly all actives have a fitted effect of over 50% in size; luciferase read-out
# Cruzain noTriton: cruzain (T. cruzi) inhibition without detergent; AID 1476; purified cruzain, Z-FR-AMC fluorescence, no detergent; P25779; 200,000 tested, 2.3% active; Potency, µM, inactives show max response, negative = inhibition, usual class: inhibitors;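 also: plate controls were enzyme without inhibitor for no effect and buffer without enzyme for full effect; nearly all actives have a fitted effect of over 40% in size; top concentration of the series not given in the record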
# Target sequence (P25779 123-467 limits assumed): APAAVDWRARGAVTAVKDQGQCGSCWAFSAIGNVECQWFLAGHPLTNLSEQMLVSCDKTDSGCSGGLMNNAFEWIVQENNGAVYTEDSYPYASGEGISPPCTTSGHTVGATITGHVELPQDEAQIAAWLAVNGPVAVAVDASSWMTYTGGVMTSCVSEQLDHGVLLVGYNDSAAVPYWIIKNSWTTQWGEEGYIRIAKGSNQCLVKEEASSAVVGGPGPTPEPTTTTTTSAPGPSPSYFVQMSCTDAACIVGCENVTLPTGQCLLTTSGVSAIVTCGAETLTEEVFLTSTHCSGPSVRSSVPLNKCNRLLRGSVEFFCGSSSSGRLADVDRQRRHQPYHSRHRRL
#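 Purified cruzain at 1.5 nM, pre-incubated 15 min with compound at room temperature in 100 mM sodium acetate pH 5.5, 5 mM DTT, 0.00005% Triton X-100. Reaction started with 2 uM Z-FR-AMC; AMC fluorescence increase over 60 s gives rate.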
# NS1 inh: inhibitors of influenza NS1 protein function; S. cerevisiae slowed by influenza A NS1, growth recovery by OD600; Potency, µM (doses to about 46.1 µM), for inactives: at the highest dose activity, positive = more growth; 270,000 tested, 0.4% active; AID 2326; active means well fitted rising curve with a large enough effect; inconclusive means small, poorly fitted or top-dose-only effect; inactive means no such curve, though single readings can be large or run the other way; also: nearly all actives have a fitted effect of over 50% in size
#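 S. cerevisiae expressing influenza A NS1, grown in glucose, washed, then diluted 1:100 into pH 6.0 -URA galactose medium with 23 nl compound. Growth recovery read as OD600; NS1-free strain serves as control.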
# 2A StopGo: lowers the luciferase signal of an FMDV 2A StopGo reporter | human cells with a luciferase reporter of 2A StopGo recoding; control for the full effect not named in the record | Potency, µM (top dose mostly 57.9 µM), without a hit: top-dose signal change, negative = less light | 410,000 tested, 1.2% active; active = well fitted falling curve with a large enough effect; inconclusive = small, poorly fitted or top-dose-only effect; inactive = no such curve, though single readings can be large or run the other way; tested in HEK293T cells; also: % is scaled to controls: 0 for no effect and ±100 for the full control effect; nearly all actives have a fitted effect of over 45% in size; luciferase light after 4 h
# Cruzain inh Det: blocks cruzain activity in presence of Triton detergent. purified cruzain, Z-FR-AMC fluorescence, 0.01% Triton. Potency, µM, for the others: max response, negative = inhibition, usual class: inhibitors. 200,000 tested, 0.43% active;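 also: plate controls were neutral wells for no effect and buffer without enzyme for full effect; nearly all actives have a fitted effect of over 40% in size; top concentration of the series not given in the record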
#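 Cysteine protease activity tested under reducing, mildly acidic conditions (100 mM sodium acetate pH 5.5, 5 mM DTT) plus 0.01% Triton X-100. Cruzain 1.5 nM; substrate Z-FR-AMC 2 uM; 15 min compound preincubation at room temperature.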
# RE007 growth inh: less growth of the S. pombe RE007 Vpr strain; 360,000 tested, 0.21% active; Potency, µM (doses to about 92.2 µM), for the others: top-dose activity change, negative = less growth; AID 651644; S. pombe RE007 Vpr strain, BacTiter-Glo ATP luminescence, 24 h; control for the full effect not named in the record; active = well fitted falling curve with a large enough effect; inconclusive = small, poorly fitted or top-dose-only effect; inactive = no such curve, though single readings can be large or run the other way;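 also: % is scaled to controls: 0 for no effect and ±100 for the full control effect; nearly all actives have a fitted effect of over 50% in size; the assay follows cell death caused by Vpr and the record does not say whether a fall means rescue or toxicity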
#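 Fission yeast RE007 carrying one integrated HIV-1 vpr copy, seeded at OD 0.01 in PMG+AL medium with 23 nL pinned compound. Grown 24 h at 30 degrees; viability read by BacTiter-Glo luminescence after 5 min.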
# SARS PLP yeast: inhibitors of SARS-CoV papain-like protease in yeast; S. cerevisiae expressing SARS-CoV PLpro, growth rescue; control for the full effect not named in the record; Potency, µM (titrated, usually from 32.9 µM), without a hit: at the top dose activity, positive = growth rescue; 330,000 tested, 0.19% active; AID 485353; active means well fitted rising curve with a large enough effect; inconclusive means small, poorly fitted or top-dose-only effect; inactive means no such curve, though single readings can be large or run the other way; also: 0% is about no effect; nearly all actives have a fitted effect of over 55% in size; growth read by luminescence after 48 h
# MARV entry inh: blocks Marburg virus binding to or entry into cells | Marburg virus pseudotyped entry inhibition, cell reporter; control for the full effect not named in the record; about a third of the inactives were read at about 46 µM | Potency, µM (top dose mostly 37.8 µM), inactives show top-dose activity change, negative = inhibition, actives largely listed as inhibitors | 300,000 tested, 1.8% active; active = well fitted inhibition curve with a large enough effect; inconclusive = small, poorly fitted or top-dose-only effect, or effect the other way; inactive = flat fitted curve, though single readings scatter; tested in HEK293 cells; about a fifth of its hits are not listed in these tables; also: % is scaled to controls: 0 for no effect and ±100 for the full control effect; luciferase read-out
# Numbers without * were called inactive; ? = inconclusive; · = not tested or not shown; & = joins results of further samples; [ ] = remark or other dose. Unless noted, calls follow the shape of the dose curve; as a rule, active = well fitted curve in the direction sought with a large enough effect; inconclusive = small, poorly fitted or top-dose-only effect, or another doubt; inactive = no such curve, though single readings can be large; an effect the other way counts as inactive or inconclusive. Potency is read from the fitted curve at half-maximal effect.
SMILES,Lassa entry inh,Cruzain noTriton,NS1 inh,2A StopGo,Cruzain inh Det,RE007 growth inh,SARS PLP yeast,MARV entry inh
Cn1c(Cn2c(=O)sc3ccccc32)nnc1SCC(=O)NCCc1ccccc1,·,7.9%,?,3.1%,-1.1%,-0.9%,-4.9%,·
Cc1cc(NC(=O)CSc2nc3ccccc3c(=O)n2C2CCCC2)no1,?,-0.2%,-2.7%,-19.0%,-1.7%,3.9%,5.6%,?
COc1ccccc1NC(=O)C(Cc1ccccc1)NS(=O)(=O)c1ccc2c(c1)CCN2C(C)=O (stereo unspecified),-8.1%[46.1 µM],-0.7%,·,26.8%,-3.8%,·,·,0.8%[46.1 µM]
CC(NC(=O)c1ccc(C#N)cc1)C1CC2CCC1C2 (stereo unspecified),?,·,-14.6%,-26.0%,·,-27.1%,-3.5%,4.1%[46.1 µM]
CC(NC(=O)Cc1ccc(S(=O)(=O)N2CCOCC2)s1)c1ccc(Cl)c(Cl)c1 (stereo unspecified),-2.1%,·,·,-18.8%,·,2.4%,·,?
COc1ccc(Cc2nc3c4c(ncn3n2)Oc2c(ccc3ccccc23)C4c2ccc(OC)c(OC)c2)cc1 (stereo unspecified),?,1.5%,-1.4%,-24.4%,4.2%,16.3%,14.5%,?
Cc1ccc(/C=C/C(=O)O)cc1S(=O)(=O)N(C)CCO,-1.3%,-1.8%,-10.8%,-3.5%,0.5%,-0.8%,11.5%,-5.2%
C(#Cc1ccccc1)Cn1nnc2ccccc21,1.6%,-6.0%,-13.4%,·,-5.1%,17.1%,-5.6%,4.8%
CC(=O)Nc1ccc(Nc2ncnc3c2cnn3C)cc1,5.6%[46.1 µM],8.2%,·,7.3%,0.8%,·,·,·
N#CCC(=O)Nc1ccc(C(=O)OCC(=O)Nc2ccccc2Sc2ccccc2)cc1,-12.2%[46.1 µM],·,6.3%,-18.5%,·,-4.1%,1.7%,-52.9%[46.1 µM]
CCc1nnc(NS(=O)(=O)c2ccc(N=Cc3c(C)[nH]n(-c4ccc(C)c(C)c4)c3=O)cc2)s1,8.3%,?,-2.3%,-14.3%,-23.1%,?,-49.5%,4.0%
CCCn1c(N)c(Sc2ccccc2[N+](=O)[O-])c(=O)n(CCC)c1=O,-5.0%,·,-3.2%,-2.6%,·,23.7%,-1.0%,21.3%[46.1 µM]
FC(F)(F)c1cc(-c2ccccc2)nc2cc(-c3ccc(Br)cc3)nn12,11.3%[46.1 µM],-0.5%,·,-21.1%,0.8%,·,·,-12.9%[46.1 µM]
CNC(=S)N1CCN(c2cccc(OC)c2)CC1,11.9%,-5.7%,11.4%,-7.8%,4.5%,-11.0%,4.0%,10.2%
Cc1oc2c(C)c3oc(=O)c(CCC(=O)NCCCN4CCCC4=O)c(C)c3cc2c1C,·,·,-4.9%,-13.7%,·,-28.5%,-6.0%,·
Cc1ccc(NC(=O)c2cccc(OCc3c(C)noc3C)c2)cc1S(=O)(=O)Nc1ccccc1Cl,?,?,23.0%,31.9%[activator],-3.2%,13.5%,17.6%,-17.9%
O=C(NC(Cc1ccccc1)C(=O)O)/C(=C/c1cccc([N+](=O)[O-])c1)NC(=O)c1cccc(Br)c1 (stereo unspecified),3.4%[46.1 µM],·,?,-8.0%,·,9.1%,0.0%,0.7%[46.1 µM]
O=C(Nc1ccc(Cl)cc1C(=O)c1ccccc1)c1ccc(Br)o1,-0.2%,2.9%,13.5%,-11.6%,-2.4%,2.6%,-0.7%,-6.2%[46.1 µM]
CSc1sc(-c2n[nH]c(=S)n2C)c2c1C=CCC2,?,·,2.7%,21.6%,·,-2.8%,16.5%,21.6%
COc1ccc(N2C(=O)CC(N3CCC(c4nc5ccccc5[nH]4)CC3)C2=O)cc1 (stereo unspecified),-3.1%,3.7%,-117.0%,4.0%,2.4%,39.8µM*,-33.3%,2.3%
COc1ccc(CCNCc2ccc3c(c2)n(C)c(=O)n3C)cc1,-0.3%[46.1 µM],-2.1%,·,12.4%,1.1%,·,·,?
CCOc1ccc(-c2cc(NC(=O)c3c(F)cccc3F)c(C(=O)O)s2)cc1,?,·,-3.9%,-13.6%,·,-4.9%,-3.8%,0.7%[46.1 µM]
C/C(=N\NC(=O)C1CC1)c1ccccc1O,·,·,·,52.7%[activator],·,-24.6%,-1.3%,28.9%[46.1 µM]
CCS(=O)(=O)NCc1nnc2n1-c1ccc(Cl)cc1C(c1ccccc1)=NC2,?,-6.0%,0.7%,12.8%,1.5%,2.5%,-8.5%,0.0%
COc1cccc(-c2cc(C(=O)Nc3cccnc3Cl)no2)c1,?,2.8%,-13.5%,52.8%&46.2%[activator],-1.3%,-15.8%,-1.2%,19.0%&7.0%[46.1 µM]
# Later entries:
SMILES,Lassa entry inh,Cruzain noTriton,NS1 inh,2A StopGo,Cruzain inh Det,RE007 growth inh,SARS PLP yeast,MARV entry inh
COC(=O)c1ccccc1S(=O)(=O)NC(=O)c1ccccc1,2.6%,-5.5%,7.9%,9.1%,-0.2%,11.0%,15.9%,0.0%[46.1 µM]
CCCCCCC1CC(CCc2nc(=S)[nH][nH]2)C(=O)O1 (stereo unspecified),1.2%,4.2%,29.7%,-9.9%,-6.2%,-10.3%,-15.1%,27.5%
O=C(O)/C=C/C(=O)N(Cc1ccc2c(c1)OCO2)C1CC(=O)N(CCc2ccccc2)C1=O (stereo unspecified),24.0%,·,·,-24.8%,·,4.1%,0.1%,1.4%
CCn1c(COc2ccccc2)nnc1SCC(=O)c1cccc([N+](=O)[O-])c1,-1.7%,-2.5%,-1.3%,·,-5.7%,4.9%,-1.3%,?
COC(=O)C(Cc1c[nH]c2ccccc12)NC(=O)COc1cccc(C)c1 (stereo unspecified),?,-1.5%,·,7.4%,-3.6%,·,·,·
CCOC(=O)c1csc(NC(=O)c2ccccc2)n1,·,-11.4%,-6.7%,22.2%,6.8%,4.1%,2.2%,·
O=C1/C(=C/c2ccc(F)cc2)SC(=S)N1Nc1ncc(C(F)(F)F)cc1Cl,4.5%,?,6.4%,1.2%,-7.7%,4.3%,5.6%,18.7%
CC(C)(C)c1cc(C(=O)NN)n(Cc2ccc(F)cc2)n1,·,·,?,4.6%,·,1.1%,-0.4%,·
CC(=O)c1c(C)[nH]c(C(=O)Nc2cccc(S(=O)(=O)N3CCOCC3)c2)c1C,4.5%,-7.2%,0.8%,15.6%,-2.9%,-7.9%,16.6%,13.1%
O=C(N=Nc1c(O)[nH]c2ccccc12)Nc1ccccc1,?,·,·,-39.1%,·,-2.4%,·,?
Cc1noc(NS(=O)(=O)c2ccc(NC(=O)COc3ccc(Cl)cc3Cl)cc2)c1C,·,?,·,-10.2%,-15.7%,-0.7%,-19.1%,·
Cc1nc2nc[nH]n2c(=O)c1CC(=O)O,1.5%,0.2%,-0.3%,·,-7.6%,-4.1%,-4.0%,0.6%
CC(C)CNS(=O)(=O)c1ccc(S(=O)(=O)N2CCC(N3CCCCC3)CC2)cc1,-4.2%,·,3.1%,3.3%,·,2.8%,0.1%,-5.6%[46.1 µM]
C=CC[n+]1c(-c2ccc(Cl)cc2Cl)csc1Nc1c(C)n(C)n(-c2ccccc2)c1=O,?,·,-32.4%,?,·,-23.4%,-5.0%,?
Cc1ccc(NC2=C(Cl)C(=O)OC2OC(=O)c2ccco2)cc1C (stereo unspecified),15.1%,-4.0%,-12.4%,0.0%,-7.8%,·,5.7%,23.7%
Cc1nn(Cc2ccc(Cl)c(Cl)c2)c(C)c1NC(=O)c1noc2c1CCc1ccccc1-2,-24.6%[46.1 µM],17.7%,·,?,-2.9%,·,·,?
O=C(O)CSc1c2c(nc3cc(C(=O)Nc4ccc(F)c(Cl)c4)ccc13)CCCC2,·,·,0.3%,-16.3%,·,2.8%,-3.0%,·
CN1c2ccccc2C(=O)/C(=C\Nc2ccc(F)cc2)S1(=O)=O,6.9%[46.1 µM],·,0.3%,7.0%,·,-3.4%,-0.8%,6.8%[46.1 µM]
O=C(NCc1ccc2c(c1)CCO2)Nc1cccc(C(F)(F)F)c1,18.2%[46.1 µM],·,3.2%,-13.3%,·,26.2%,0.2%,-28.7%[46.1 µM]
CCN1CCN(c2c(S(=O)(=O)c3ccccc3)cnc3ccc(Cl)cc23)CC1,·,-1.3%,·,-2.3%,-4.5%,·,·,-21.1%[46.1 µM]
COc1ccc(/C=C/C(=O)NC(=S)N2CCN(C)CC2)cc1,-1.7%,·,·,12.6%,·,-6.0%,4.2%,12.4%[46.1 µM]
CCOC(=O)c1cn2nc(Oc3ccccc3)ccc2n1,?,·,-8.2%,10.8%,·,-2.6%,-0.2%,?
Nc1cc(=O)[nH]c(SCC(=O)Nc2cc(S(=O)(=O)N3CCCCCC3)ccc2Cl)n1,-1.6%,·,·,0.0%,·,22.0%,-6.6%,-23.2%
CCCc1cc(=O)oc2cc(C)c3c(-c4cccc(OC)c4)coc3c12,5.0%[46.1 µM],-0.9%,·,-14.9%,-2.3%,·,·,-3.3%[46.1 µM]
CCCCn1c(=O)n(C)c(=O)c2c3c(sc21)COC(C)(C)C3,1.0%,-3.2%,-13.5%,?,-0.7%,20.6%,2.3%,?
# Additional results.
SMILES,Lassa entry inh,Cruzain noTriton,NS1 inh,2A StopGo,Cruzain inh Det,RE007 growth inh,SARS PLP yeast,MARV entry inh
CCSc1ccccc1C(=O)Nc1cccnc1,-0.2%,18.3%,1.5%,22.1%,1.1%,?,1.0%,2.5%
Cc1ccccc1NC(=O)CSc1nc2ccc(NC(=O)c3ccco3)cc2s1,-4.3%[46.1 µM],-15.4%,·,?,-10.1%,·,·,-0.7%[46.1 µM]
CSCCC(NC(N)=O)C(=O)Nc1ccc2ccccc2c1 (stereo unspecified),-15.3%[46.1 µM],·,·,4.9%,·,-4.6%,7.8%,19.1%[46.1 µM]
Nc1nonc1C(=O)N/N=C/c1ccncc1,·,·,·,56.0%[activator],·,-11.2%,-3.5%,10.0%[46.1 µM]
Cc1ccc(/C=C2\CCn3c2nc2cc(C(=O)O)ccc2c3=O)c(C)c1,13.9%[46.1 µM],·,7.1%,-7.4%,·,1.2%,-16.9%,-23.6%[46.1 µM]
Clc1ccc(-n2ncc3c(NC4CCCC4)ncnc32)cc1,4.9%[46.1 µM],5.3%,·,-68.6%,0.4%,·,·,·
CCOc1ccc(NC(=O)c2ccc(NC(=O)CCS(=O)(=O)c3cccs3)cc2)cc1,-4.2%[46.1 µM],-17.4%,·,20.9%,-1.5%,·,·,?
